FGF22 binding = shifts melting point of recombinant human FGF22 | calls only at 9.99 µM | AID 651658 | 1.5% of 340,000 active | recombinant FGF22 thermal shift, SYPRO orange fluorescence; percent of sucrose octasulfate shift, DMSO zero;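 active = melting point raised past a set limit in the mean and every replicate; three in four hits are not shown here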
Target sequence (Q9HCT0 whole entry, looked up): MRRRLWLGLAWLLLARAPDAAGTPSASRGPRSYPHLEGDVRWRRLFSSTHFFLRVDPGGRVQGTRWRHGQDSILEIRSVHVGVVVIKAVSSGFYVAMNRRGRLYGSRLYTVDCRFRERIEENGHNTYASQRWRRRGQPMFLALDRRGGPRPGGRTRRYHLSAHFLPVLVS
MLL AF4-AF9 inh = inhibitors of human MLL-AF4/AF9 interaction; P42568; AlphaScreen, biotin-AF4 peptide binding to FLAG-AF9; inhibition, % at 10 µM; 0.47% of 350,000 active; AID 651704;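 active = every replicate reaching a set inhibition limit, whatever the replicate mean, cut at about 25% in these data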;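 also: 0% = plate neutral control median and 100% = total signal loss; the record names both 10 and 1 µM as test concentration; the first replicate is given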
Target sequence (P42568 whole entry, looked up): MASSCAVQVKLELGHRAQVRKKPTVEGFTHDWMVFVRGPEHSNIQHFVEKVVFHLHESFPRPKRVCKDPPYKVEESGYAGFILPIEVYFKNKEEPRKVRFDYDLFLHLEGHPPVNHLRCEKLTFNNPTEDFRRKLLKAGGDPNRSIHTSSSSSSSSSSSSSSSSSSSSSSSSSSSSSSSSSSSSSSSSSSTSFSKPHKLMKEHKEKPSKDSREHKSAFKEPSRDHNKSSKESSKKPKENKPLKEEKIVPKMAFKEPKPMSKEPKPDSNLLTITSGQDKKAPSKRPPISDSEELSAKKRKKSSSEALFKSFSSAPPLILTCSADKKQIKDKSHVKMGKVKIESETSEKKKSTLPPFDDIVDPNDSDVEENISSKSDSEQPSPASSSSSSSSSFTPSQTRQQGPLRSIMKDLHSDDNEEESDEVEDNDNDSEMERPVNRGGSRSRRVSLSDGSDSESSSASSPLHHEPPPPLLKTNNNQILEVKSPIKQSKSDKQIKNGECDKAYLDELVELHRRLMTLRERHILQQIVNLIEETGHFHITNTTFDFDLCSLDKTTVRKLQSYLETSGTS
rRNA inh HTS = inhibitors of bacterial rRNA selective over humanized ribosomes | E. coli WT GFP vs humanized-ribosome RFP mutants, fluorescence, 24 h; hits give low values; DMSO median 0, no signal -100 | GFP signal change (wild-type ribosome), % (test concentration not listed) | 1.6% of 350,000 active | AID 720706;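 active = significant combined selectivity score with lowered wild-type GFP, culture density cut under 30%, mutant RFP and density less affected; inactive = any of these conditions unmet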; also: one replicate is shown; some compounds called inactive have numbers as strong as hits
rRNA inh HTS OD600 = also measured in rRNA inh HTS; calls as there; OD600 change, %; measured here: OD600 growth;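 optical density of the mix in the first replicate; 0 = DMSO median and -100 = no signal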
rRNA inh HTS RFP = further read-out of rRNA inh HTS, marked with its call; RFP signal change, %; measured here: RFP humanized mutant strains;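 first replicate; 0 = DMSO median and -100 = no signal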
Starred values were filed as active, the others as inactive; i = inactive; + = active, no number. The list is partial; count on the stated rates, not on these rows.

A first look (6 entries):
No.	Compound	rRNA inh HTS OD600	rRNA inh HTS	MLL AF4-AF9 inh	FGF22 binding	rRNA inh HTS RFP
1	COc1ccc(NC(=O)Nc2ccc3c(c2)CC(=O)N([C@@H](C)CO)C[C@@H](C)[C@@H](CN(C)Cc2ccc(C(=O)O)cc2)O3)cc1	0	3	-2.4	i	1.7
2	CC1CN(C(=O)c2ccccc2)CCC1=NO (centres undefined)	20	16	-2.4	i	1.1
3	O=C(C[C@H]1CC[C@@H]2[C@H](COC[C@H](O)CN2Cc2cccc(F)c2)O1)NCCc1ccncc1	1	0	-1.5	i	-6.7
4	C[C@@H]1CN([C@H](C)CO)C(=O)c2cc(-c3ccc(F)cc3)cnc2O[C@@H]1CN(C)C(=O)Nc1ccccc1F	1	1	-0.5	i	0.1
5	O=C(NCC(F)(F)F)[C@@H]1[C@@H](CO)[C@@H]2Cn3c(cccc3=O)[C@@H]2N1C(=O)C1CCCC1	-2	-2	-22	i	-0.5
6	C[C@H](O)C#Cc1ccc2c(c1)O[C@H](CN(C)Cc1cncnc1)[C@H](C)CN([C@H](C)CO)S2(=O)=O	-9	-2	1.2	i	1.2

This part in full, from the start:
No.	Compound	rRNA inh HTS OD600	rRNA inh HTS	MLL AF4-AF9 inh	FGF22 binding	rRNA inh HTS RFP
1	COc1ccc(NC(=O)Nc2ccc3c(c2)CC(=O)N([C@@H](C)CO)C[C@@H](C)[C@@H](CN(C)Cc2ccc(C(=O)O)cc2)O3)cc1	0	3	-2.4	i	1.7
2	CC1CN(C(=O)c2ccccc2)CCC1=NO (centres undefined)	20	16	-2.4	i	1.1
3	O=C(C[C@H]1CC[C@@H]2[C@H](COC[C@H](O)CN2Cc2cccc(F)c2)O1)NCCc1ccncc1	1	0	-1.5	i	-6.7
4	C[C@@H]1CN([C@H](C)CO)C(=O)c2cc(-c3ccc(F)cc3)cnc2O[C@@H]1CN(C)C(=O)Nc1ccccc1F	1	1	-0.5	i	0.1
5	O=C(NCC(F)(F)F)[C@@H]1[C@@H](CO)[C@@H]2Cn3c(cccc3=O)[C@@H]2N1C(=O)C1CCCC1	-2	-2	-22	i	-0.5
6	C[C@H](O)C#Cc1ccc2c(c1)O[C@H](CN(C)Cc1cncnc1)[C@H](C)CN([C@H](C)CO)S2(=O)=O	-9	-2	1.2	i	1.2
7	CCC(=O)Nc1ccc2c(c1)OC[C@@H](C)N(Cc1ccccc1C(=O)O)C[C@@H](C)[C@H](OC)CN(C)C2=O	4	1	-2.6	i	0.2
8	Cc1nc2ccc(S(=O)(=O)CCC(=O)NCCc3ccccc3)cc2s1	5	7	-4.0	i	0.6
9	COc1cccc(S(=O)(=O)N2CCCCN3[C@@H](CO)[C@@H](c4ccc(C#CC(C)C)cc4)[C@@H]3C2)c1	-49	-44	13	i	8.5
10	C[C@@H]1CN([C@H](C)CO)C(=O)Cc2cc(NS(C)(=O)=O)ccc2O[C@H]1CN(C)Cc1ccc(Cl)c(Cl)c1	-8	-6	-0.6	i	1.9
11	C[C@H]1CN([C@@H](C)CO)S(=O)(=O)c2ccc(C3=CCCC3)cc2O[C@@H]1CN(C)C(=O)Nc1ccc2c(c1)OCO2	-13	-1	4.7	i	5.0
12	C[C@H](CO)N1C[C@H](C)[C@H](CN(C)S(=O)(=O)c2cn(C)cn2)Oc2ncc(-c3cccc(C(F)(F)F)c3)cc2C1=O	-9	-6	-0.6	i	-0.5
13	CNC[C@H]1Oc2c(NC(=O)Nc3ccccc3)cccc2C(=O)N([C@@H](C)CO)C[C@H]1C	5	3	1.3	i	3.0
14	COc1cccc(-c2cc(CNC(=O)[C@H]3O[C@@H](n4cnc5c(N)ncnc54)[C@H](O)[C@@H]3O)no2)c1	-3	9	1.6	i	-1.7
15	Cc1noc(C)c1NC(=O)Nc1ccc2c(c1)CC(=O)N([C@@H](C)CO)C[C@@H](C)[C@@H](CN(C)C(=O)Nc1ccccc1)O2	11	8	-3.7	i	-0.7
16	C[C@@H]1CN([C@@H](C)CO)C(=O)c2cc(C3=CCCCC3)cnc2O[C@H]1CN(C)C(=O)c1ccc(F)cc1	-3	-4	3.1	i	0.8
17	O=C(Nc1ccc2c(c1)[C@H]1C[C@@H](CC(=O)N3CCc4ccccc4C3)O[C@@H](CO)[C@H]1O2)c1cccnc1	-3	-4	2.4	i	-0.9
18	CCC(=O)N1C[C@H](C)[C@@H](OC)CN(C)C(=O)c2cc(NC(=O)CC(F)(F)F)ccc2OC[C@H]1C	5	4	-4.9	i	3.0
19	O=C(NCC1CCCCC1)[C@H]1[C@H](CO)[C@H]2Cn3c(cccc3=O)[C@@H]1N2CCc1ccccc1	1	-5	1.3	i	-1.2
20	C[C@H](CO)N1C[C@H](C)[C@H](CN(C)Cc2ccc3c(c2)OCO3)OCCCC[C@H](C)Oc2ccc(NC(=O)Nc3ccc4c(c3)OCO4)cc2C1=O	-44	-22	20	i	30
21	C[C@@H]1CN([C@@H](C)CO)C(=O)c2cc(NS(=O)(=O)c3cn(C)cn3)ccc2O[C@H]1CN(C)Cc1ccncc1	10	3	-1.7	i	-1.0
22	Cc1ccc(-c2ccc3c(c2)O[C@H](CN(C)Cc2ccncc2)[C@@H](C)CN([C@H](C)CO)S3(=O)=O)cc1	-10	-2	-2.7	i	1.0
23	O=C(C[C@H]1C[C@H]2c3cc(NC(=O)Nc4ccc(F)cc4)ccc3O[C@H]2[C@@H](CO)O1)NC1CCCC1	34	4	-1.9	i	-6.4
24	C[C@H](CO)N1C[C@H](C)[C@H](CN(C)CC2CC2)Oc2ccc(NS(=O)(=O)c3cccs3)cc2CC1=O	6	-2	-2.4	i	-4.0
25	COCCNc1nc(Nc2ccc(C)cc2C)c2sccc2n1	-22	12	1.0	i	-4.2

More structures follow:
No.	Compound	rRNA inh HTS OD600	rRNA inh HTS	MLL AF4-AF9 inh	FGF22 binding	rRNA inh HTS RFP
26	CO[C@H]1CN(C)C(=O)c2cc(NC(=O)Nc3ccccc3)ccc2OC[C@@H](C)N(C(=O)CN(C)C)C[C@@H]1C	-2	0	3.0	i	-0.1
27	C/C=C/c1ccc2c(c1)O[C@@H](CN(C)Cc1ccccn1)[C@@H](C)CN([C@H](C)CO)S2(=O)=O	-4	-4	0.9	i	-1.7
28	COCC(=O)Nc1ccc2c(c1)OC[C@@H](C)N(Cc1ccccc1F)C[C@H](C)[C@@H](OC)CN(C)C2=O	-12	-6	2.2	i	3.3
29	COCC(=O)N(C)C[C@@H]1Oc2cc(-c3ccc(C#N)cc3)ccc2S(=O)(=O)N([C@H](C)CO)C[C@H]1C	-8	-2	0.1	i	-1.2
30	C[C@@H]1CCCCO[C@@H](CN(C)S(C)(=O)=O)[C@@H](C)CN([C@H](C)CO)C(=O)c2cc(NC(=O)c3ccccc3)ccc2O1	7	2	-1.5	i	-1.2
31	CN(Cc1ccc2nsnc2c1)C(=O)C1CCC(=O)N(CCc2ccccc2)C1 (centres undefined)	11	0	-4.7	i	-1.4
32	O=C(C[C@@H]1CC[C@@H](NS(=O)(=O)c2ccc(F)cc2)[C@@H](CO)O1)N1CCN(c2ccccc2)CC1	-3	-2	0.3	i	0.7
33	CN(Cc1cn(Cc2cccc(Cl)c2)nn1)C1CN(Cc2cn(Cc3cccc(Cl)c3)nn2)S(=O)(=O)C1 (centres undefined)	-56	-46	0.7	i	-7.4
34	COc1ccc(OC)c(NC(=O)Nc2nc(C(N)c3ccccc3Cl)cs2)c1 (centres undefined)	-80	-62	26*	i	-22
35	O=C(CC1C(=O)NCCN1Cc1ccccc1)NC1CCCCC1 (centres undefined)	20	15	-3.2	i	4.2
36	C[C@@H](NC(=O)C[C@H]1CC[C@@H](NC(=O)Cc2ccccn2)[C@H](CO)O1)c1ccccc1	2	-1	-0.3	i	0.2
37	O=C(c1ccncc1)N1CC2(C1)[C@H](c1ccccc1)[C@H](CO)N2Cc1ccccn1	10	3	0.0	i	-1.2
38	COc1cccc(CNC(=O)C[C@@H]2CC[C@H](NC(=O)C3CC3)[C@@H](CO)O2)c1	0	0	0.2	i	-1.0
39	C[C@H](CO)N1C[C@H](C)[C@H](CN(C)C(=O)Cc2ccncc2)Oc2ncc(C#C[C@@H](C)O)cc2C1=O	6	3	-3.7	i	0.9
40	CCC(=O)N1CC2(C1)CN(C(C)=O)[C@H](CO)c1[nH]c3cc(OC)ccc3c12	1	3	-0.9	i	-3.6
41	C[C@H]1CCCCO[C@@H](CN(C)S(=O)(=O)c2ccc(Cl)cc2)[C@@H](C)CN([C@@H](C)CO)C(=O)c2cc(NS(C)(=O)=O)ccc2O1	-9	2	3.8	i	-0.1
42	CCCNC(=O)N1CC2(CCN(CC3CC3)CC2)c2c(n(C)c3cc(OC)ccc23)[C@H]1CO	8	1	13	i	-0.1
43	COc1ccc(NC(=O)N[C@H]2C=C[C@@H](CC(=O)NC3CCC3)O[C@H]2CO)cc1	4	0	-0.6	i	-1.2
44	O=C(CSc1ncccn1)NC1CCCC1	8	9	-3.3	i	0.2
45	CC1(C(=O)NC2CCCCC2)CCC(=O)N1C1CCN(Cc2ccccc2)CC1 (centres undefined)	0	-2	1.6	i	-2.4
46	CCOC(=O)[C@]12CCC=C1N(Cc1cccc3ccccc13)C(=O)[C@H](CC(=O)N1CCN(C(=O)c3ccco3)CC1)C2	-15	-17	7.8	i	1.8
47	COc1ccc(NC(=O)Nc2ccc3c(c2)CC(=O)N([C@@H](C)CO)C[C@@H](C)[C@H](CN(C)S(=O)(=O)c2ccccc2)O3)cc1	0	-4	1.3	i	-1.6
48	CC(C)NC(=O)Nc1ccc2c(c1)C(=O)N([C@H](C)CO)C[C@@H](C)[C@H](CN(C)C(=O)NC(C)C)O2	6	1	-2.3	i	0.1
49	C[C@@H]1CN([C@@H](C)CO)C(=O)CCCn2cc(nn2)CO[C@@H]1CN(C)Cc1ccc(Oc2ccccc2)cc1	9	2	2.3	i	-2.2
50	C[C@H]1CN([C@@H](C)CO)S(=O)(=O)c2ccc(-c3ccccc3)cc2O[C@H]1CN(C)Cc1ccncc1	-49	-32	4.6	i	4.4

Remaining list, next part.
No.	Compound	rRNA inh HTS OD600	rRNA inh HTS	MLL AF4-AF9 inh	FGF22 binding	rRNA inh HTS RFP
51	COc1ccc(NC(=O)N(C)C[C@@H]2OCCCC[C@H](C)Oc3ccc(NC(=O)C4CCCCC4)cc3C(=O)N([C@@H](C)CO)C[C@H]2C)cc1	0	-2	0.2	i	0.1
52	C[C@@H]1CN([C@@H](C)CO)C(=O)c2cc(NC(=O)Cc3ccccc3)ccc2O[C@@H](C)CCCCO[C@H]1CN(C)Cc1ccc2c(c1)OCO2	1	0	5.7	i	-1.4
53	O=C(c1cccnc1)N1C[C@@H]2[C@H](c3ccccc31)[C@@H](CO)N2C(=O)Nc1ccccc1Cl	1	3	-2.8	i	0.8
54	COc1cccc(NC(=O)N(C)C[C@@H]2Oc3cc(-c4ccccc4F)ccc3S(=O)(=O)N([C@@H](C)CO)C[C@@H]2C)c1	-4	-6	0.0	+	2.1
55	C[C@@H]1CN([C@H](C)CO)C(=O)c2cc(C3=CCCC3)cnc2O[C@H]1CN(C)S(=O)(=O)c1cn(C)cn1	4	0	-2.2	i	2.0
56	C[C@H](CO)N1C[C@H](C)[C@H](CN(C)Cc2ccc(O)cc2)OCc2cnnn2CCCC1=O	-1	-2	-1.3	i	-2.9
57	COc1ccc(CN2CC3(C2)CN(C(=O)Nc2ccc(F)cc2)[C@@H](CO)c2[nH]c4cc(OC)ccc4c23)cc1	-80	-61	44*	i	-16
58	Cc1ccc(-c2cnc3c(c2)C(=O)N([C@H](C)CO)C[C@H](C)[C@@H](CN(C)Cc2ccccc2C(=O)O)O3)cc1	5	-2	-1.5	i	-1.9
59	C[C@@H]1CN([C@@H](C)CO)C(=O)Cc2cc(NC(=O)C3CCCCC3)ccc2O[C@H]1CN(C)S(C)(=O)=O	11	4	-1.6	i	-0.7
60	C[C@@H]1CN([C@H](C)CO)C(=O)c2cc(NC(=O)c3ccncc3)ccc2O[C@@H]1CN(C)S(=O)(=O)c1cn(C)cn1	5	1	-2.6	i	-1.5
61	COc1cccc(NC(=O)N[C@H]2CC[C@H](CC(=O)Nc3ccc(-c4ccccc4)cc3)O[C@H]2CO)c1	-11	-5	-1.0	i	1.5
62	COc1ccc(NC(=O)Nc2ccc3c(c2)CC(=O)N([C@@H](C)CO)C[C@@H](C)[C@@H](CN(C)Cc2ccc(C(=O)Nc4ccccc4N)cc2)O3)cc1	2	-2	-8.0	i	4.1
63	CCCCc1c(-c2ccc(Br)cc2)ncn1CCc1ccccc1OC	-73	-59	1.4	i	-16

Screens as filed in PubChem BioAssay.
